# Mtb growth = Confirmatory growth inhibition assay against Mycobacterium tuberculosis H37Rv, potency (AID 1949); most inactive calls were filed without a number and no value below 0 was filed; inhibition, % at 10 µg/mL; hits with a dose series show IC50 in µg/mL; actives 1.6% (n = 100,000);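 active = confirmed in a dose series; inconclusive = about 50% or more but not retested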;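 also: bacteria grown 7 days with compound before Alamar blue readout; 0% = untreated bacteria and 100% = reference antibiotic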
# Active calls of the source: *; i = inactive; ? = inconclusive. Some of the compounds tested. The share of hits here may be higher or lower than overall.
SMILES,Mtb growth
O=C(O)C(CC(=O)N1CCOCC1)NCc1ccccc1 (stereo not drawn),i
CCN1CCN(C(=O)Nc2ccc(Cl)c(Cl)c2)CC1,i
O=[N+]1C=C(c2ccco2)N([O-])C2CCCCC21 (stereo not drawn),i
COc1cccc(-c2coc3c(C)c4oc(=O)c5c(c4cc23)CCCC5)c1,0%
Cc1ccc(C)c(OCC(=O)Nc2ccc3c(c2)OCO3)c1C,26%
Cc1ccc(C(=O)CN(C(=O)c2ccc(Cl)cc2Cl)N2C(=O)CCC2=O)cc1C,i
CSc1cccc(NC(=O)CN(C2CCCCC2)S(=O)(=O)c2ccccc2)c1,i
Cc1nc(SCC(=O)c2cccc([N+](=O)[O-])c2)nc2c1CCCC2,i
COC(=O)Nc1nc2c(C)cccc2s1,i
Cc1ccc(-c2n[nH]c(=S)n2-c2ccccc2)cc1,i
COc1ccccc1NC(=O)CC1S/C(=N\N=C2CCCC2)NC1=O (stereo not drawn),3%
CC(C)c1ccc(NC(=O)CSc2n[nH]c(-c3ccc(Cl)cc3)n2)cc1,?
CC(=O)Nc1cccc(NC(=S)NC2CCCCC2)c1,i
Cc1cccc2[nH]c(SCC(=O)N3CCOCC3)nc12,i
CCn1nnnc1NCc1cccn1C,i
CCc1cccc(CC)c1NC(=O)c1ccccc1,i
O=c1c2c3c(sc2nc2ccc4nnnn4n12)CCCC3,i
COc1cc(C)c(S(=O)(=O)n2cnc3cc([N+](=O)[O-])ccc32)cc1C,1%
CCc1c(C)sc(NC(=O)c2ccco2)c1C(=O)N1CCOCC1,i
O=C(COc1ccc(F)cc1F)N1CCCC1,i
COc1ccc(Br)cc1C(=O)NC(=S)Nc1ccc(C(=O)O)c(Cl)c1,i
Cc1cc(Br)cc(C)c1OCC(=O)NCC1CCCO1 (stereo not drawn),i
Cc1ccc(-n2c(Cc3c[nH]c4ccccc34)n[nH]c2=S)c(Br)c1,4%
O=C(Nc1cccc2ccccc12)C1C2CCC3C(CCC21)C3(Cl)Cl (stereo not drawn),3%
CCOC(=O)c1c(-c2ccccc2)oc2ccc(OC(=O)c3cccs3)cc12,i
CCCCC1=NN(C(=O)CCc2ccccc2O)C(O)(C(F)(F)F)C1 (stereo not drawn),i
Cc1ccc2nc(-c3ccc(N4C(=O)CCC4=O)cc3)sc2c1,i
Fc1ccc(Nc2ncnc3c2cnn3-c2ccccc2)cc1,i
COc1ccc(-c2noc(-c3cc(C)ccc3C)n2)cc1,5%
COc1ccc(C(=O)N=Nc2c(O)[nH]c3ccccc23)cc1,5%

# Sorted by formula weight (low to high): some entries from above.
SMILES,Mtb growth
O=C(COc1ccc(F)cc1F)N1CCCC1,i
COc1ccc(C(=O)N=Nc2c(O)[nH]c3ccccc23)cc1,5%
O=c1c2c3c(sc2nc2ccc4nnnn4n12)CCCC3,i
Cc1ccc(C)c(OCC(=O)Nc2ccc3c(c2)OCO3)c1C,26%
Cc1cc(Br)cc(C)c1OCC(=O)NCC1CCCO1 (stereo not drawn),i
COc1cc(C)c(S(=O)(=O)n2cnc3cc([N+](=O)[O-])ccc32)cc1C,1%
O=C(Nc1cccc2ccccc12)C1C2CCC3C(CCC21)C3(Cl)Cl (stereo not drawn),3%
CCOC(=O)c1c(-c2ccccc2)oc2ccc(OC(=O)c3cccs3)cc12,i
Cc1ccc(-n2c(Cc3c[nH]c4ccccc34)n[nH]c2=S)c(Br)c1,4%
CSc1cccc(NC(=O)CN(C2CCCCC2)S(=O)(=O)c2ccccc2)c1,i

# (more compounds)
SMILES,Mtb growth
Cc1noc(C)c1C(=O)Nc1nc(-c2ccc(F)cc2)c(C)s1,i
COCCNC(=O)c1ccc(C)cc1C,i
CCC1(CC)Cc2ccccc2-c2nc(-c3ccccc3)oc(=O)c21,i
COc1cccc(/C=C2\SC(=S)N(CCCC(=O)Nc3nnc(CC(C)C)s3)C2=O)c1,i
CN(C)CCCNC(=S)Nc1ccccc1C(F)(F)F,i
COc1ccccc1C(=O)OC1CCN(C)CC1,i
CS(=O)(=O)N(CC(=O)Nc1cccc(F)c1)c1ccc(Br)cc1,i
O=C(CCc1ccccc1)Nc1nnc(SCC(=O)Nc2ccccc2C(F)(F)F)s1,i
CCN(c1ccccc1)S(=O)(=O)Cc1ccccc1,i
Cc1ccc(NC(=O)CN2CCOCC2)c(C)c1,i
O=C(O)Cn1c(C(F)(F)F)nc2ccccc21,i
Cc1ccc([N+](=O)[O-])cc1S(=O)(=O)N1CCN(C)CC1,i
COc1ccc(CCNC(=O)C(C)Oc2ccc(F)cc2)cc1OC (stereo not drawn),5%
COc1ccc(Cl)cc1NC(=S)NC1CCN(Cc2ccccc2)CC1,38%
COc1ccc(-c2csc(NC(=S)NC(=O)c3cccc(F)c3)n2)cc1,i
O=C(CN(CCc1ccccc1)S(=O)(=O)c1ccc(Cl)cc1)N1CCc2ccccc2C1,3%
CCCCOc1ccc(C(=O)Nc2ccc(N3CCN(C(=O)C(C)C)CC3)cc2)cc1,i
CN1CCN(S(=O)(=O)Cc2ccccc2)CC1,9%
Cc1ccc(NC(=O)C(=O)NCCN2CCN(S(=O)(=O)c3ccccc3)CC2)cc1C,i
Cc1cc([N+](=O)[O-])ccc1NC(=O)CC(C)(C)C,i
COCCNC(=S)NNC(=O)c1ccco1,i
O=C(CN1CCN(c2ccc([N+](=O)[O-])cc2)CC1)Nc1ccc(F)cc1,i
COc1ccc(S(=O)(=O)N2CCC(C(=O)NCC3CCCO3)CC2)cc1 (stereo not drawn),i
Cc1ccc(CNC(=S)NNC(=O)C(C)(C)O)cc1,i
CC(C)CNS(=O)(=O)c1ccc(CCC(=O)N2CCCCCC2)cc1,i
COc1ccc(C(=O)Nc2ccc(S(=O)(=O)N(C)C3CCCCC3)cc2)cc1,i
CC(C)(C)c1cc(Cl)ccc1OCCCN1CCCC1,i
CCN(CC)C(=O)c1ccc(NC(=O)c2ccccc2)cc1,i
COc1ccc(N(CC(=O)Nc2ccc(NC(C)=O)cc2)S(C)(=O)=O)c(OC)c1,i
CCc1ccc(NC(=O)CN(c2ccc(Oc3ccccc3)cc2)S(C)(=O)=O)cc1,i

# Following part:
Molecule	Mtb growth
COCCn1c(=S)[nH]c2cc(OC)c(OC)cc2c1=O	i
CS(=O)(=O)N(CC(=O)Nc1cccc([N+](=O)[O-])c1)c1cccc(F)c1	i
COc1ccc(CCC(=O)NC2CCCCCC2)cc1	6%
O=C(NCCN1CCOCC1)c1cc2cc(Cl)cc(Cl)c2oc1=O	i
Cc1cccc(NC(=O)COC(=O)CCc2ccccc2)c1C	i
O=C(NCc1ccc2c(c1)OCO2)c1cc(-c2cccc(Cl)c2)nc2ccccc12	1%
Cc1cccc(C)c1NC(=O)CSc1nc(N)cc(N)n1	i
NCc1oc(-c2ccccc2)cc1C(=O)O	i
COC(=O)c1c(NC(=S)Nc2cc(C(F)(F)F)ccc2Cl)sc2c1CCCCC2	i
COc1ccc(NC(=O)c2ccccc2NC(=O)C(Cl)Cl)cc1	42%
S=C(NCCc1ccccc1)NCc1cccs1	2%
O=C(Nc1nc(-c2ccc(Cl)cc2)cs1)NC1CCCCC1	3%

# Further compounds.
Molecule	Mtb growth
C=CCNS(=O)(=O)c1ccc(OC)c(Br)c1	i
Cc1nn(C)c(-c2n[nH]c(=S)n2-c2ccc(CC(=O)O)cc2)c1Br	i
Cc1c(Cl)cccc1Nc1nc(N)nc(CN2CCN(c3ccccc3)CC2)n1	?
COc1ccc2c(c1)c1c(n2C(C)=O)C(OC(C)=O)=NCC1	i
O=C1C2C(C(=O)N1CC1CCCO1)C1C=CC2C12CC2 (stereo not drawn)	i
COc1ccc(C(=O)NC(=S)Nc2ccc(N3CCN(C(=O)c4ccc(C)cc4)CC3)cc2)cc1	i
C=C(C)CSc1nnc2n(-c3ccc(C)cc3)c(=O)c3c4c(sc3n12)COC(C(C)C)C4 (stereo not drawn)	i
CN1CCN(C(=O)CCSc2ccc(Cl)cc2)CC1	i
COc1ccc(NC(=O)C(C)Sc2ccccc2)cc1 (stereo not drawn)	i
COC(=O)c1c(NC(=O)c2ccccc2N(C)S(=O)(=O)c2ccccc2)sc2c1CCCC2	3%
O=C(CCSc1ccccc1)Nc1ccc(Br)cc1F	0%
CC(=O)NC(=S)Nc1ccccc1C(N)=O	i

# More results:
Molecule	Mtb growth
COC(=O)c1c(NC(=S)NNC(=O)C2c3ccccc3Oc3ccccc32)sc2c1CCC2	i
O=C(c1ccc(F)cc1)N1CCN(C2CCCC2)CC1	i
CCN(C(=O)c1cccc(NC(=O)C(C)C)c1)C1CCCCC1	20%
CC1(C)Cc2nc3sc4c(=O)[nH]cnc4c3cc2CS1	i
O=C(C(=O)N1CCCC1)c1c(-c2ccccc2)[nH]c2ccccc12	i
CCCN1C(=O)C(O)(CC(=O)c2ccc3c(c2)CCCC3)c2ccccc21 (stereo not drawn)	i
O=C1CC(c2ccc(C(F)(F)F)cc2)c2ccc3ccccc3c2N1 (stereo not drawn)	i
Cc1cccc(NC(=O)CCCN(C)S(=O)(=O)c2ccc(Cl)cc2)c1	i
Cc1nn(Cc2ccc(F)cc2Cl)c(C)c1[N+](=O)[O-]	i
N/C(=N\OC(=O)COc1cc(Cl)c(Cl)cc1Cl)c1ccncc1	i
Cc1ccc(Cn2ncc3c(N4CCN(c5ccccc5C)CC4)ncnc32)cc1	?
CCN(CC)C(=O)c1sc(NC(=S)N2CCN(S(=O)(=O)c3ccc(Cl)cc3)CC2)c(C(=O)OC)c1C	i

# Other results follow.
Molecule	Mtb growth
CCCC(=O)Nc1ccccc1NC(=O)CN(C)S(=O)(=O)c1ccc2ccccc2c1	i
CC(C)OC(=O)c1cccc(C(=O)OC(C)C)n1	i
CN(Cc1ccccc1)C(=O)Cn1nc(C(F)(F)F)c2c1CCC2	i
CN(CC(=O)N1CCCC1)S(=O)(=O)c1ccc(Cl)cc1	i
Cc1ccc(N(CC(N)=O)S(=O)(=O)c2ccccc2)c(C)c1	4%
CN(CC(=O)N1CCCC1)S(=O)(=O)c1ccc(F)cc1	i
CC(C)CC(=O)Nc1ccc(Oc2ccc(Cl)cc2)cc1	i
CN=C(NS(=O)(=O)c1ccccc1C)c1ccccc1	i
CCOC(=O)c1c(NC(=O)CN2C(=O)c3ccccc3C2=O)sc(C)c1-c1ccccc1	i
Cc1cccc(C)c1OCc1cccc([N+](=O)[O-])c1	1%
CS(=O)(=O)Nc1ccc(C(=O)NCC2CCCO2)cc1 (stereo not drawn)	i
CCc1c(SCCC(=O)O)nc2ccccc2c1C	i

# Five entries picked at random from those above:
Molecule	Mtb growth
CN(Cc1ccccc1)C(=O)Cn1nc(C(F)(F)F)c2c1CCC2	i
CCc1c(SCCC(=O)O)nc2ccccc2c1C	i
Cc1cccc(C)c1OCc1cccc([N+](=O)[O-])c1	1%
CC(C)OC(=O)c1cccc(C(=O)OC(C)C)n1	i
CS(=O)(=O)Nc1ccc(C(=O)NCC2CCCO2)cc1 (stereo not drawn)	i

# (more compounds)
Molecule	Mtb growth
COc1ccc(N(C(C)C(=O)Nc2cccc(Br)c2)S(C)(=O)=O)cc1 (stereo not drawn)	i
O=C(Nc1ccc(Br)cc1F)C1CC1	1%
CCOc1ccccc1N(CC(=O)O)S(=O)(=O)c1ccccc1	i
Brc1ccc(CNc2ccc(CNc3ncn[nH]3)cc2)cc1	4%
O=C(Nc1ccc(F)cc1)C1CCN(S(=O)(=O)c2cc(Cl)ccc2Cl)CC1	i
C=CC1CN2CCC1CC2C(OC(=O)C1CC1)c1ccnc2ccccc12 (stereo not drawn)	2%
O=C1C2C3c4ccccc4C(C(=O)O)(c4ccccc43)C2C(=O)N1c1ccccc1Br (stereo not drawn)	i
CCn1c(SCC(=O)Nc2sc3c(c2C#N)CCC(C(C)(C)C)C3)nnc1-c1cccc(C)c1 (stereo not drawn)	3%
O=C(O)c1ccc(S(=O)(=O)NCc2ccccc2)cc1	i
CCCCn1c(Cc2ccc(OC)cc2)nc2ccccc21	i
O=C(CCc1nc2ccccc2[nH]c1=O)OCc1ccc(S(=O)(=O)c2ccccc2)cc1	i
Cc1cc(C)c(NC(=O)CSc2nnc(NC(=O)c3ccccc3)s2)c(C)c1	i

# New compounds follow
Molecule	Mtb growth
CCOC(=O)c1sc2ccccc2c1OC(=O)c1ccccc1Br	i
COc1ccc(N2CCN(CC(=O)c3c(C)[nH]c4ccccc34)CC2)cc1	i
C=CCc1cc(C2C(C(=O)OCC)=C(C)NC3=C2C(=O)CC(C)(C)C3)cc(OC)c1O (stereo not drawn)	5%
Cc1ccc(CN(c2ccc(C(=O)NCc3ccccn3)cc2)S(C)(=O)=O)cc1	i
COc1ccc(-n2c(SCc3ccc(C(=O)O)cc3)nc3sc4c(c3c2=O)CCCC4)cc1	i
COc1cc(S(=O)(=O)N2CCCCC2)c(OC)cc1Cl	i
CNC(=O)c1cc2c(n(-c3ccccc3)c1=O)CC(C)(C)CC2=O	i
Cc1cc(Cl)ccc1OCc1nc(-c2ccccn2)no1	i
CS(=O)(=O)Nc1ccc(-c2cn3ccccc3n2)cc1	i
COc1ccc(OCC(=O)Nc2ccc(N3CCCCC3)cc2)cc1	i
O=C(COC(=O)c1ccccc1I)c1ccc2c(c1)OCCO2	15%
COc1cc(C(=O)Nc2ccc([N+](=O)[O-])cc2)ccc1OCc1ccccc1	i

# Continuation.
Molecule	Mtb growth
CCCCNC(=O)c1ccc2nc(-c3ccccc3)c(-c3ccccc3)nc2c1	i
Cc1ccc(Cl)cc1NC(=O)COc1cc(Cl)c(Cl)cc1Cl	i
O=C(Nc1ccc(Sc2ccc([N+](=O)[O-])cc2)cc1)c1ccco1	i
CC1(C)C(=O)OC(c2cccc([N+](=O)[O-])c2)C2(CCCC2)C1=O (stereo not drawn)	i
CC(C)c1ccc2oc(-c3ccc(Cl)c(NC(=O)COc4ccc([N+](=O)[O-])cc4)c3)nc2c1	2%
CCc1cc(C(=O)N2CCOCC2)c(NC2=NS(=O)(=O)c3ccccc32)s1	i
Cc1ccc(C(=O)O/N=C(\N)Cc2ccc(Cl)c(Cl)c2)cc1C	40%
CCCCc1ccc(NC(=O)C2CCCCC2)cc1	38%
O=C(COc1ccccc1)N1CCN(Cc2ccncc2)CC1	i
COc1cc(NC(=O)CS)cc(OC)c1	1%
CCOc1ccccc1NC(=O)COc1ccccc1CC	13%
